# Assay outcomes from PubChem.
# TRPML1 agonist: activates the human TRPML1 channel. AID 624414. 410,000 compounds, 0.12% hits. activation, % (test concentration not listed). TRPML1-expressing cells, Ca2+ dye fluorescence, FDSS; host cell line not named in the record; reference of the full effect not given here; in the data active = activation above about 50%; inconclusive = about 30% to 50%; inactive = below about 30%; further: 0% is about no effect; the text of the record puts the active cut at 80%
# Target sequence (Q9GZU1 whole entry, looked up): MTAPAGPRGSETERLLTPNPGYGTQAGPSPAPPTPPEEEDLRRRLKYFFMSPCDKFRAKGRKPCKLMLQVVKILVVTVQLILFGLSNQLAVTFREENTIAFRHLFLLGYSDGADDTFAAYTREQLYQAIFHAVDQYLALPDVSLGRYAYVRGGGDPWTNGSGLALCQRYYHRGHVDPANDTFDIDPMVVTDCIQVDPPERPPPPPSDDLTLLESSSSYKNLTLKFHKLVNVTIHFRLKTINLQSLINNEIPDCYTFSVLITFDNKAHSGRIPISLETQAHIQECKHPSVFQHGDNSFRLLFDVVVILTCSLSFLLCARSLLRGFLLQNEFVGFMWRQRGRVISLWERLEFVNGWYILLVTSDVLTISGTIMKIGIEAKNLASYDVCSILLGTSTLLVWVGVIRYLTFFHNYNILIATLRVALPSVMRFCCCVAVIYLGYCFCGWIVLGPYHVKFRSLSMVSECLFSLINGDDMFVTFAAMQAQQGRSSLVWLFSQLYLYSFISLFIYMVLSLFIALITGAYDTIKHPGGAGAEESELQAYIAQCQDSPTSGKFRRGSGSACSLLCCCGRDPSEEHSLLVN
#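 Kinetic FDSS Ca2+ read in Tet-induced TRPML1-DL cells (ABD Ca8 dye plus quencher, 45-90 min RT loading): baseline, then compound, then 110 s agonist window; EC80 agonist 54-4 at 4uM final added afterwards for a 110 s antagonist window.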
# CtBP-E1A inh: blocks the CtBP interaction with E1A. AlphaScreen GST-E1A/His-CtBP binding, 1536-well; stronger effect = lower value; control for the full effect not named in the record. 340,000 compounds, 0.49% hits. AID 651724. activity change, % (no concentration beside the values); in the data active means activity change below about -65%; inconclusive means about -30% to -65%; inactive means above about -30%; further: on the % scale 0 is the no-effect control and ±100 the full control effect
#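 GST-E1A and His-tagged CtBP (125 nM each as 5X stock) were preincubated with pin-transferred compound for 2 h at 37 °C in the dark, then glutathione donor and nickel acceptor beads were added for 1 h before AlphaScreen reading.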
# PINK1 expr mod: changes PINK1 expression. PINK1 immunofluorescence, high-content cytometry, 24 h. 410,000 compounds, 0.2% hits. Potency, µM (doses to about 76.6 µM), without a hit: at the highest dose activation (PINK1 increase), actives largely listed as activators; active = well fitted activation curve with a large enough effect; inconclusive = small, poorly fitted or top-dose-only effect; inactive = flat fitted curve, though single readings scatter; cell line not stated here;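 further: potency means the concentration at half of the fitted maximal effect; % of control where 0% means no effect; nearly all actives have a fitted effect of over 65% in size; a mitochondrial uncoupler was the plate control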
#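 Stable cell line, 250 cells/well, 12 h attachment; compounds pinned at 5 concentrations, 24 h; CCCP control. Fixed with nuclear dye, primary antibodies 12 h at 10 degrees C, secondary plus cell stain; laser-scanning cytometer read.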
# D2 agonist: human D2 receptor agonism in beta-arrestin assay. activation, % (no concentration beside the values). 360,000 compounds, 0.084% hits. P14416. AID 624465. DiscoveRx PathHunter D2 beta-arrestin, luminescence, 90 min; 100% = 57 uM dopamine signal; in the data active = activation above about 40%; inconclusive = about 15% to 40%; inactive = below about 15%; further: compound concentration not given in the record; the text of the record calls up to 30% inactive
# Target sequence (P14416 whole entry, looked up): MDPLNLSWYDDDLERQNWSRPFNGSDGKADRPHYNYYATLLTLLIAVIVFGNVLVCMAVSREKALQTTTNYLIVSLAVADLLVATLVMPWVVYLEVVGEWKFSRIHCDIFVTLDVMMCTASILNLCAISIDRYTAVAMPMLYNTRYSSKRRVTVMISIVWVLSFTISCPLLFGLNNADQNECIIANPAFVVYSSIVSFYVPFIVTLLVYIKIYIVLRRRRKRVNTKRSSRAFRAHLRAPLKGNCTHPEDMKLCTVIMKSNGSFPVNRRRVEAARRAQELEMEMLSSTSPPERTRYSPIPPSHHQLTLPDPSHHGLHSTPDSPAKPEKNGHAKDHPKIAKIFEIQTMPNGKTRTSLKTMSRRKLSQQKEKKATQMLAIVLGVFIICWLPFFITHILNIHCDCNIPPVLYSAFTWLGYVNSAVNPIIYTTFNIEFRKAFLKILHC
#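 Agonist mode: compounds alone added to overnight-plated D2 PathHunter cells for 90 min at 37 C, with 57 uM final dopamine (EC100) defining full response. Beta-arrestin recruitment detected by chemiluminescent reagent, read after 1 h at ambient temperature.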
# Six1-Eya2 inh: blocks human Six1 binding to Eya2. AlphaScreen GST-Six1/His-Eya2 binding, biochemical; stronger effect = lower value; control for the full effect not named in the record. activity change, % (test concentration not listed). 360,000 compounds, 0.56% hits. AID 651725; in the data active = activity change below about -65%; inconclusive = about -30% to -65%; inactive = above about -30%; further: on the % scale 0 is the no-effect control and ±100 the full control effect
#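 AlphaScreen luminescence read after one hour at 37 °C in darkness. Pin-transferred compounds met GST-Six1 and His-Eya2 protein (5X stock 250 nM/500 nM) plus glutathione donor and Ni-chelate acceptor beads (5X, 50 ug/mL).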
# TRPML1 inh: blocks the human TRPML1 channel; Q9GZU1; TRPML1-inducible cells, Ca2+ dye fluorescence, FDSS; stronger effect = lower value; inhibition of EC80 agonist-evoked calcium signal; activity change, negative = inhibition, % (no concentration beside the values); 390,000 compounds, 0.02% hits; AID 624415; in the data active means activity change below about -50%; inconclusive means about -30% to -50%; inactive means above about -30%;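 further: stimulus is agonist 54-4 at its EC80 concentration; on the % scale 0 is the no-effect control and ±100 the full control effect; compound concentration not given in the record; the text of the record puts the active cut at -80%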
#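 Calcium fluorescence in TRPML1-DL cells induced overnight with Tet: a 110 s read after compound pin addition, then a 110 s antagonist read after challenge with 54-4 at 4 uM final (EC80).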
# Active calls of the source: *; ? = inconclusive; . = not tested or not shown; & = joins results of further samples. This is a random part of the collection (roughly 1% active in at least one column).
SMILES,TRPML1 agonist,CtBP-E1A inh,PINK1 expr mod,D2 agonist,Six1-Eya2 inh,TRPML1 inh
COCCNC(=O)C(c1ccc(F)cc1)N(CCOC)C(=O)CCC(=O)Nc1nccs1 (stereo not given),-0.3,0.2,-1.5%,-0.3,19.7,-0.7
Cc1ccn2c(=O)cc(CSc3nnc(NC(=O)c4ccccc4Cl)s3)nc2c1,0.7,.,-14.1%,.,.,2.4
CCOc1cccc(C(=O)Nc2ccc(S(=O)(=O)N(Cc3ccccc3)c3ccccc3)cc2)c1,0.9,.,1.7%,.,.,3.4
COc1ccc(NCc2cccn2-c2nnc(N3CCC(C)CC3)s2)c(OC)c1,2.7,.,0.6%,.,.,15.6
CCOC(=O)c1ccc(N(CC(=O)NC2CCCCC2)C(=O)CNC(=O)c2ccco2)cc1,-0.6,0.8,0.8%,-4.4,9.0,-16.1
CCOc1ccc(NC(=O)NCc2c(-n3cccc3)sc3c2CCCC3)cc1,-0.3,.,0.2%,.,.,17.0
COc1ccc(S(=O)(=O)Nc2cccc3c2O[C@H](CN(C)S(=O)(=O)c2ccccc2)[C@@H](C)CN([C@H](C)CO)C3=O)cc1,-0.3,4.0,0.9%,0.0,1.4,-4.6
Cc1cccc(Cn2ccc(N)n2)c1,0.8,-12.4,3.9%,-5.5,-22.0,-23.2
CCc1cc(C(=O)N(Cc2ccccc2)c2c(N)n(CCOC)c(=O)[nH]c2=O)sc1C,-0.4,7.2,-1.2%,-5.6,0.1,-9.5
Cc1ccc(CS(=O)Cc2ccc(C(=O)NCc3ccccc3Cl)o2)cc1 (stereo not given),-0.9&-0.2,3.9,1.3%&0.6%,-3.0,5.4,-14.3&-1.0
CC1(C(=O)NS(=O)(=O)c2cccc(C#N)c2)CCN1C(=O)C/C=C/c1ccccc1 (stereo not given),-0.1,7.7,1.6%,4.3,4.5,.
O=C(Cc1ccsc1)NCC(c1ccco1)N1CCCCC1 (stereo not given),2.1,1.5,-0.7%,-2.6,-3.2,-5.2
Cn1c(=O)[nH]c(=O)c2c1nc(N1CCCCCC1)n2Cc1cccc2ccccc12,-1.9,1.8,7.2%,-0.4,-1.4,-1.1
Cc1ccc(OCC(=O)NCC(=O)OCc2cc(=O)n3nc(C(C)C)sc3n2)cc1,-0.6,.,2.8%,.,.,-9.7
CCOC(=O)Cc1csc(N/N=C\c2cccc(Br)c2)n1,-0.7,-2.2,4.1%,6.4,4.8,29.9
N#Cc1ccc(CSc2ncccn2)cc1,0.5,-2.1,1.1%,0.9,4.5,4.9
O=C(NCc1ccccc1)C(c1ccc(Cl)cc1)N(C(=O)c1csnn1)C1CC1 (stereo not given),0.5,10.0,0.3%,-4.0,10.4,7.4
CC1(c2ccc(Cl)cc2Cl)NC(=O)N(CC(=O)Nc2cccnc2Cl)C1=O (stereo not given),0.1,9.7,-0.8%,-5.0,1.5,-0.5
O=C(Nc1ccc2oc(-c3cccc(Cl)c3Cl)nc2c1)c1cccc(Br)c1,2.4,.,-1.7%,.,.,-4.9
Cc1ccc(NCc2nnc(SCC(=O)Nc3cc(C)on3)n2C)cc1,-0.3,-0.8,0.3%,-0.1,8.7,-15.6
CCc1nnc(NS(=O)(=O)c2ccc(N/C=C(\C=O)c3nc4cc(Cl)ccc4o3)cc2)s1,0.2,-0.1,-2.4%,-1.9,-3.3,4.0
C/C(=N/NC(=O)CN1CCN(Cc2ccccc2Cl)CC1)c1ccco1,0.8,-2.9,0.1%,1.6,4.1,-9.1
CN(CC(=O)Nc1ccc(Cl)cc1)C(=O)CN1C(=O)C2CCCCC2C1=O (stereo not given),-0.5,0.2,0.2%,-1.8,1.7,-3.5
COc1ccc(OC)c(-c2nc3c(C#N)c[nH]n3c2NC2CCCCC2)c1,1.4,.,0.5%,.,.,80.3
Cc1ccc(Nc2nc(COC(=O)C3CC3)cs2)cc1,0.2,-0.4,-0.1%,3.2,-23.4,14.8
# The list goes on:
SMILES,TRPML1 agonist,CtBP-E1A inh,PINK1 expr mod,D2 agonist,Six1-Eya2 inh,TRPML1 inh
COc1ccccc1C1CC(c2ccc(Cl)cc2Cl)Nc2nc(N)nn21 (stereo not given),2.7,0.6,0.1%,0.5,-3.0,13.1
N#CC1=CC2CN(Cc3ccccc3)C1C1C(=O)N(c3ccccc3)C(=O)C21 (stereo not given),1.9,5.6,0.9%,-1.9,0.0,7.5
O=C(c1c(F)cccc1F)N1CCCC(c2nc(-c3ccc(F)cc3)no2)C1 (stereo not given),2.0,-10.2,2.5%,-5.3,-2.0,74.1
O=C(COc1coc(CN2CCc3ccccc3C2)cc1=O)Nc1ccccc1F,0.7,-8.0,-3.1%,1.8,0.1,2.9
COC(=O)c1cc(S(=O)(=O)NCc2ccc(Br)cc2)c[nH]1,-0.2,.,3.1%,3.4,0.8,-4.7
COc1ccccc1NC(=O)CN1CCN(c2ccccc2OC)CC1,2.2,.,5.2%,-1.0,-1.4,-5.8
CSc1cccc(NC(=O)N2CCN(S(=O)(=O)c3ccc4c(ccn4C)c3)CC2)c1,2.7,.,-1.7%,.,.,16.1
COc1ccccc1C1CCN(c2ccc(CO)cc2[N+](=O)[O-])CC1,2.8,-22.3,-0.8%,1.3,-11.2,44.0
COc1ccc(C)cc1NC(=O)C(Sc1nnnn1C)c1ccccc1 (stereo not given),3.3,0.4,0.5%,2.6,5.6,7.9
CNC(=O)c1c(NC(=O)c2ccc(S(=O)(=O)N3CCC(C)CC3)cc2)sc2c1CCC2,0.4,.,0.7%,.,.,?
C=C(CN(C)C)C(=O)c1ccc(OC2OC(COC(C)=O)C(OC(C)=O)C(OC(C)=O)C2OC(C)=O)cc1 (stereo not given),1.9,-18.3,-6.7%,-6.2,5.0,-11.2
COC(C[C@H]1O[C@@H]1[C@@H](O)COCc1ccccc1)OC,1.0,3.8,-2.0%,-4.3,3.9,-15.4
CCOC(=O)C1CCCN(C(=O)Cn2ncc3c(C)n(Cc4ccc(F)cc4)c(C)c3c2=O)C1 (stereo not given),-0.3,.,-1.8%,.,.,-6.5
Cc1ccc2c(c1C)NC(=O)CC2c1ccc(Cl)cc1Cl (stereo not given),22.7,.,2.4%,.,.,1.4
O=C(CSCc1cccs1)N1CCCC1,1.1,-2.7,10.6%,2.5,10.6,6.9
COc1ccc(C(C(=O)NC2CCCC2)N2CCc3ccccc32)cc1 (stereo not given),0.2,0.5,-0.2%,-5.3,-5.6,13.5
O=C(c1cc(C2CC2)on1)N1CCCC(N2CCN(c3ccc(F)cc3)CC2)C1 (stereo not given),0.4,-11.0,0.2%,3.0,-0.8,15.7
Cc1ccc(NC(=O)N2CCN(C(=O)C3CCCO3)CC2)cc1 (stereo not given),0.3,0.6,0.2%,1.8,0.5,-3.5
C[C@H](NC(=O)c1nc[nH]c1C(=O)N1CCc2ccccc2C1)C(=O)OCc1ccccc1,0.4,.,1.7%,?,10.2,-11.5
COc1cc2c(cc1NC(=S)NC(=O)c1c(OC)cccc1OC)oc1ccccc12,-0.6,.,1.6%,2.7,0.2,13.0
CC1(C)Cc2c(sc3nc(SCC(=O)NCc4ccco4)n(-c4ccccc4)c(=O)c23)CS1,0.2,-4.1,2.4%,0.8,2.1,-4.9
CC(C)C[C@@H](NC(=O)C1CCC(CNC(=O)[C@@H]2CCCN2C(=O)OC(C)(C)C)CC1)C(=O)O (stereo not given in full),0.4,0.0,1.3%,-4.6,1.0,-6.7
Cc1cccc(OCc2ccc(C(=O)N3CCOCC3)o2)c1,-0.3,-2.1,0.6%,-1.4,-2.4,-3.2
CCC1=NN(C(=O)Cc2ccc([N+](=O)[O-])cc2)C(O)(C(C)(C)C)C1 (stereo not given),-0.5,-8.4,-5.0%,-0.6,1.5,6.1
CC(C)=N/N=C(\c1cccc([N+](=O)[O-])c1)C12CN3CN(CN(C3)C1)C2,-0.2,4.4,2.0%,2.9,0.1,-13.6
# The results go on:
SMILES,TRPML1 agonist,CtBP-E1A inh,PINK1 expr mod,D2 agonist,Six1-Eya2 inh,TRPML1 inh
Cc1c(Br)c([N+](=O)[O-])nn1CCCC(=O)Nc1c(C)n(C)n(-c2ccccc2)c1=O,0.6,.,-1.2%,-0.4,0.8,-13.2
Cc1ccsc1/C=N/n1c(-c2ccco2)n[nH]c1=S,-1.0,2.7,-1.6%,3.1,0.5,2.2
CCOC(=O)COc1c(OC)cc(Cl)cc1C1NC(=O)NC(C)=C1C(C)=O (stereo not given),-0.5,6.3,?,5.2,4.5,5.6
COc1ccc(CCNC(=O)c2ccc(NS(=O)(=O)c3ccc4[nH]c(=O)[nH]c4c3)cc2)cc1OC,0.4,-4.9,-0.4%,-2.7,1.3,-6.0
COc1cccc(C(C[N+](=O)[O-])c2c(C)[nH]n(-c3ccccc3)c2=O)c1 (stereo not given),1.7,-4.9,1.1%,-5.9,-10.0,1.1
COc1ccc(Cn2ccc3nc(C)c(C(=O)Nc4ccc(OC)c(OC)c4)cc3c2=O)cc1,-0.8,.,1.2%,.,.,4.5
O=C(Nc1nncs1)c1cc(-c2ccncc2)nc2ccc(Cl)cc12,0.9,4.6,12.2%,-4.8,-4.9,19.3
COC(=O)C1CCCN1C(=O)C1CCCN1C(=O)CNC(=O)OCc1ccccc1 (stereo not given),-0.8,6.9,4.0%,-3.3,-4.7,25.3
COc1ccc(N=c2oc3cc(O)ccc3cc2C(=O)Nc2ccccn2)cc1OC,1.8,-0.7,?,1.6,23.0,42.2
CN(Cc1cccs1)C(=O)Cn1cnc2cc([N+](=O)[O-])ccc2c1=O,0.0,-10.7,6.9%,-1.4,-5.4,-5.0
NC(=S)NN=Cc1nccc2c(C(F)(F)C(F)(F)C(F)(F)F)cccc12,-0.7,15.9,3.1%,-1.8,-19.0,-12.2
COc1ccccc1NC(=O)C1CCCN1S(=O)(=O)c1cccc2nsnc12 (stereo not given),3.8,.,-1.7%,-2.6,0.3,-6.4
Cn1nc(C(=O)Nc2ccc3c(c2)OCCO3)c2ccccc2c1=O,-0.7,?,1.0%,-3.2,?,21.7
Cc1c(-n2cc(C(=O)O)c(=O)c3cc(F)c(N4CCCC4)c(F)c32)c(=O)n(-c2ccccc2)n1C,0.2,8.7,0.3%,-3.8,1.4,-2.3
CCS(=O)(=O)N1CCC(C(=O)Oc2ccc(C)c(C)c2)CC1,.,.,1.4%,-1.8,5.5,.
NC(=O)CC(NC(=O)c1ccccc1)c1ccc(NC2CCCC2)c([N+](=O)[O-])c1 (stereo not given),-0.4,1.7,?,-2.5,-3.4,-2.3
O=c1c(-c2cc(-c3ccccc3)nc3c2COc2ccc(Cl)cc2-3)coc2ccccc12,-0.3,.,0.9%,.,.,-0.6
O=C(CCCn1c(=O)c2cccn2c2cccnc21)NCCc1ccc(Cl)cc1,-1.2&-0.4,-1.7,1.0%&1.2%,-4.6,-12.1,7.1&-8.5
NC(=O)CC(NC(=O)c1cccc(Br)c1)c1ccc(N2CCCCCC2)c([N+](=O)[O-])c1 (stereo not given),-0.4,-9.9,1.8%,-0.5,-11.9,8.3
